High-throughput results as filed in PubChem.
H5N1 CPE – antiviral screen in MDCK cells, H5N1 avian flu; inhibition, % at 50 µM; AID 740; cytopathic effect, luminescence, 72 h; hits give high values; no value below 0 was filed and about half of the inactive calls have no number; reference of the scale not given here; 96,000 compounds, 0.07% hits; in the data active = inhibition above about 25%
Numbers without * were called inactive; i = inactive.

SMILES | H5N1 CPE
CCOC(=O)/C(C#N)=C\c1cc(C)n(-c2ccccc2)c1C | i
C/C(=N\NC(=S)NC(C)C)c1ccc(-n2ccnc2)cc1 | 1.0
COc1ccc(CC(=O)NNC(=S)Nc2ccccc2)cc1Br | 0.4
CCNc1nc(Oc2ccc(=O)[nH]n2)nc(SC)n1 | 1.7
CCCSc1nc(C)c(CC(=O)O)c(=O)[nH]1 | 0.1
Cc1onc(-c2ccccc2)c1C(=O)N1CCN(S(=O)(=O)c2ccc3c(c2)OCCO3)CC1 | 1.8
Cc1noc(C)c1COC(=O)c1cccc(S(=O)(=O)N2CCCCCC2)c1 | 4.2
O=C(NCCCO)Nc1ccc2nc(-c3ccco3)c(-c3ccco3)nc2c1 | 1.6
c1ccc2sc(N3CCN(Cc4nnnn4CC4CCCO4)CC3)nc2c1 (stereo unspecified) | 0.6
COc1ccc(OC)c(NC(=O)CSc2ncccc2C(=O)O)c1 | 0.5
CC(=O)c1cc2c(cc1NC(=O)Nc1cccc(Cl)c1)OCCO2 | i
CC(C)COC(=O)N(C)c1ccc(C(O)(C(F)(F)F)C(F)(F)F)cc1 | 1.4
O=C(c1ccccc1)N(Cc1cccs1)C1CCS(=O)(=O)C1 (stereo unspecified) | i
O=C(NC1CCc2ccccc21)C12CN(Cc3ccccc3)CC1C(c1cccc([N+](=O)[O-])c1)=NO2 (stereo unspecified) | 1.4
CC(C)(C)c1cc(CN2CCCC(O)C2)c(O)c(C(C)(C)C)c1 (stereo unspecified) | i
O=[N+]([O-])c1ccc(CSc2nc3ccccc3o2)cc1 | i
CN(C)CCN1CC(C(=O)O)CC1=O (stereo unspecified) | 0.5
O=C(Nc1nc2cc(Cl)ccc2s1)C1CCCN(S(=O)(=O)c2cccc3cccnc23)C1 (stereo unspecified) | 0.8
C=CCn1c(CCNC(=O)C(C)(C)C)nc2ccccc21 | 0.3
CCc1cc(=O)oc2cc(C)c(CN3CCCC3)c(O)c12 | 9.9
CC(=O)c1ccc(N2CCCCCC2)c(F)c1 | i
CCOc1ccc(NC(=O)CCn2c(=O)[nH]c3ccsc3c2=O)cc1 | 0.2
Nc1cccc2c1C(=O)N(C(=O)c1ccc(Cl)c(S(=O)(=O)N3CCCCCC3)c1)C2=O | 1.3
CN(C)S(=O)(=O)N1CCN(C(=O)N2CCOCC2)CC1 | i
Cc1cccc(NC(=O)C2CCN(S(=O)(=O)c3cccs3)CC2)c1 | i
SMILES | H5N1 CPE
COc1ccccc1/C=N/NC1=NCCCCC1 | 0.9
Clc1ccc(-n2nnnc2-c2ccccc2)cc1 | 0.6
Cn1cc(SCC(=O)NCC2CCCO2)c2ccccc21 (stereo unspecified) | 0.4
COc1ccc(OC)c(C(=O)c2oc3ccccc3c2NC(C)=O)c1 | i
O=C(O)c1cc(-c2ccco2)nc2ccc(Br)cc12 | 2.9
COc1ccc(OC)c(CN(CCCN2CCOCC2)S(=O)(=O)c2ccc(NC(C)=O)cc2)c1 | 1.1
COc1ccccc1NC(=O)c1nn(-c2ccc(Cl)cc2)ccc1=O | 0.6
O=C(c1cc(-c2ccncc2)nc2ccccc12)N1CCC2(CC1)OCCO2 | 0.6
CC1(C)OC(=O)C(=CNc2cccc(O)c2)C(=O)O1 | i
CCN(CC)C(=O)c1sc(NC(=O)c2cc(-c3ccc(C)s3)nc3ccccc23)c(C(=O)OC)c1C | i
O=C(CCS(=O)(=O)c1ccc(Br)cc1)N1CCN(Cc2ccccc2)CC1 | i
CCOn1c(=O)c(-c2cccs2)[n+]([O-])c2ccccc21 | i
O=C(N/C=N/OCc1cccc(C(F)(F)F)c1)N1OC[C@@H]2COc3ccc4ccccc4c3[C@@H]21 | 0.4
CN(C)S(=O)(=O)c1cc(C(=O)NCC2CCCO2)c(Cl)cc1Cl (stereo unspecified) | 0.5
CN(CC(=O)N1CCCC1)S(=O)(=O)c1cc(Cl)ccc1Cl | i
O=C(Cc1cc(=O)[nH][nH]1)N/N=C/C=C/c1ccccc1 | 1.5
CCc1ccc(C2CC(c3ccccc3)n3ncnc3N2)cc1 (stereo unspecified) | i
CCOc1ccc(CC(=O)Nc2sc(Cc3ccccc3)c(C)c2C(N)=O)cc1OCC | 0.1
COc1ccccc1OCC(=O)Nc1ccc(CSc2ccccc2)cc1C | i
O=C(COC(=O)c1ccccc1[N+](=O)[O-])c1ccc(C2CCCCC2)cc1 | i
Cc1ccccc1-n1c(C)nc2sccc2c1=O | i
CC(C)OC(=O)CSc1nnc(-c2ccccn2)n1C | i
COc1cc(NS(=O)(=O)c2ccc(N=Cc3c(C)[nH]n(-c4ccccc4)c3=O)cc2)nc(OC)n1 | i
Cc1cccc(NC(=O)CSc2nnc(-c3ccc(S(=O)(=O)N4CCOCC4)cc3)n2C)c1 | i
O=C(CCCc1ccccc1)NCCCN1CCOCC1 | i

Compounds from the list above with an aryl thioether with sulfur outside any ring:
SMILES | H5N1 CPE
CCNc1nc(Oc2ccc(=O)[nH]n2)nc(SC)n1 | 1.7
CCCSc1nc(C)c(CC(=O)O)c(=O)[nH]1 | 0.1
COc1ccc(OC)c(NC(=O)CSc2ncccc2C(=O)O)c1 | 0.5
O=[N+]([O-])c1ccc(CSc2nc3ccccc3o2)cc1 | i
Cn1cc(SCC(=O)NCC2CCCO2)c2ccccc21 (stereo unspecified) | 0.4
COc1ccccc1OCC(=O)Nc1ccc(CSc2ccccc2)cc1C | i
CC(C)OC(=O)CSc1nnc(-c2ccccn2)n1C | i
Cc1cccc(NC(=O)CSc2nnc(-c3ccc(S(=O)(=O)N4CCOCC4)cc3)n2C)c1 | i

Other entries
SMILES | H5N1 CPE
Cc1cc2c(ccc3[nH]onc32)n1 | 1.3
O=C1c2ccccc2C(=O)N1CCCc1nc(-c2ccccn2)no1 | 0.1
CCCS(=O)(=O)N1CCCC(C(=O)NCCc2ccc(Cl)cc2)C1 (stereo unspecified) | 0.5
COc1ccccc1C1CC(c2ccc(Cl)cc2)Nc2ncnn21 (stereo unspecified) | i
C/C(=N\NC(=O)c1ccccc1O)C1C(=O)c2ccccc2C1=O | 1.6
COc1ccc2cc(C(=O)O)ccc2c1 | 0.2
CC(NC(=O)c1ccccc1NC(=O)c1ccco1)c1ccccc1 (stereo unspecified) | 1.1
OC1(c2cccnc2)CCN(Cc2nnnn2C2CCCCC2)CC1 | i
O=C(NCc1ccccn1)c1ccc(COc2ccc(Cl)cc2)o1 | i
COc1cc(NC(=O)COc2ccc(F)cc2)nc(OC)n1 | i
COc1ccc(CNC(=O)C2=C(C)C(=O)OC23CCC(C)CC3)cc1 (stereo unspecified) | i
CCOC(=O)C(O)(c1ccc(N)c(OC)c1)C(F)(F)F (stereo unspecified) | i
COc1ccc(-n2c(O)c(C(C)=NCc3ccco3)c(=O)[nH]c2=O)cc1 | i
Cc1cc(C)c2c(n1)nn1c(NCCCN(C)C)cc(C)nc21 | 0.4
Nc1n[nH]c(-c2ccc(Br)cc2)c1Cl | i
COc1ccc2cc(CN(CC3COCCO3)S(=O)(=O)c3ccc(Cl)cc3)c(=O)[nH]c2c1 (stereo unspecified) | i
NC(=O)c1nsc(C(=O)N(CC(=O)NCc2ccc3c(c2)OCO3)C2CCCC2)c1N | i
Cc1onc(-c2ccccc2Cl)c1C(=O)Nc1nnc(-c2ccc(Cl)cc2Cl)s1 | i
CCn1c2ccccc2c2cc(NC(=O)C/C(C)=N/NC(=O)c3ccccc3N)ccc21 | 1.6
O=C(c1cc(-c2cccnc2)nc2ccccc12)N1CCC2(CC1)OCCO2 | 2.5
O=C1c2cccc3c([N+](=O)[O-])ccc(c23)C(=O)N1c1ccc(Cl)cn1 | i
Cc1ccccc1OCC(=O)NCC(=O)N/N=C/C=C/c1ccccc1 | 0.6
CCOc1cc(CNCCO)cc(Br)c1OCc1ccccc1Cl | i
CCC(=O)N(Cc1cc2cc(OC)ccc2[nH]c1=O)c1cc(C)ccc1C | 0.4
C/C(=N/NC(=O)CSCc1ccc(Cl)cc1)c1cccc(NC(=O)c2ccccc2)c1 | i
SMILES | H5N1 CPE
N#C/C(=C\c1ccccc1)c1nc2ncccc2[nH]1 | 2.7
CC(=O)c1cc(-c2ccc(F)cc2)n(CCC(=O)Nc2cc(C)[nH]n2)c1C | i
S=c1[nH]nc(-c2cnccn2)n1-c1ccccc1 | 0.1
O=C(CSc1ncc(C(F)(F)F)cc1Cl)N1CCN(S(=O)(=O)c2ccc(Cl)cc2)CC1 | 0.0
CCOc1nc(Oc2cccc(C(=O)O)c2)nc(Oc2cccc(C(=O)O)c2)n1 | i
COc1ccc(C(=O)N2CCC(C(=O)NCc3ccccn3)CC2)cc1 | 1.0
O=C1N/C(=C\c2ccccc2)c2ccccc21 | i
Cc1occc1C(=O)Nc1ccc(S(=O)(=O)N2CCCC2)cc1 | 0.8
COCC(C)n1c(SCC(=O)NC(=O)Nc2ccc3c(c2)OCCO3)nc2ccccc2c1=O (stereo unspecified) | i
Cc1c(NC(=O)CSc2n[nH]c(-c3ccccc3)n2)c(=O)n(-c2ccccc2)n1C | i
O=S(=O)(c1ccc(F)cc1)c1nc(-c2ccccc2F)oc1N1CCCCC1 | 0.5
O=C(/C=C/c1ccc2c(c1)OCO2)Nc1nc(-c2ccccc2)cs1 | 0.2
O=c1c2ccccc2nc(-c2ccc(Cl)c(Cl)c2)n1O | i
Cc1cc(Nc2cc(F)ccc2C)n2ncnc2n1 | 4.8
CCOC(=O)C1(CC)CC(CSc2nc3ccccc3[nH]2)OC1=O (stereo unspecified) | i
COc1cc(/C=N\n2nnnc2N)ccc1OCc1ccc(F)cc1 | i
Brc1c(OCCOCCn2cncn2)ccc2ccccc12 | 1.5
COc1cc(NC(=O)Cn2c(-c3cncs3)nc3ccccc32)cc(OC)c1OC | 1.8
COc1ccccc1N(CN1CCCC1=O)C(=O)c1ccccc1F | i
Cc1ccc(C)c(-n2c(SCC(=O)Nc3nonc3C)nnc2-c2ccoc2C)c1 | 0.5
Cc1cc(C)cc(OCC(=O)Nc2cccc(C(=O)O)c2)c1 | 0.2
O=C(c1ccccc1)N1CCN(CC2CC=CCC2)CC1 (stereo unspecified) | 0.4
COn1c(=O)c(-c2ccc(Cl)cc2)[n+]([O-])c2ccccc21 | 2.1
COc1cccc(-c2nc(N3CCC(C)CC3)c3ccccc3n2)c1O | 5.0
Cc1ccc(CN2CN(S(=O)(=O)c3cccs3)c3nc4ccccc4nc32)cc1 | 0.2
SMILES | H5N1 CPE
Cc1cc(=O)oc2cc3c(cc12)OCCN3 | 0.5
COC(=O)/C(=C\Nc1ccc(Cl)cc1Cl)NC(=O)c1ccc(Cl)cc1Cl | i
O=C(Nc1nccs1)C1CCN(S(=O)(=O)c2cccnc2)CC1 | 0.1
CCCc1cc(=O)[nH]c(SCC(=O)NC2CCCCC2)n1 | i
c1ccc(Nc2ncnc3sc4c(c23)CCC4)cc1 | 0.2
COc1ccc(N2CCN(Cc3cc4c(cc3O)CCC4)CC2)cc1 | i
Cc1ccccc1NC(=O)Nc1ccccc1Br | 0.5
CC(C)CCn1c(=S)[nH]c2ncccc2c1=O | i
CC(C)NC(=O)C1CCCN(S(C)(=O)=O)C1 (stereo unspecified) | 0.7
C=CCn1c(SCC(=O)Nc2ccc3c(c2)OCO3)nnc1-c1cc(Br)ccc1O | i
CSc1nnc(Cn2c(=O)sc3ccccc32)n1-c1cccc(Cl)c1 | i
CN1CCN(CC(=O)N(C)c2nc(-c3ccccc3)cs2)CC1 | i
Cc1c(C(=O)NCc2cccnc2)oc2ccc(S(=O)(=O)N3CCCCCC3)cc12 | 8.8
N#Cc1ccc(NC(=O)COC(=O)C2=COCCO2)cc1 | 0.6
COc1cccc(CNCCc2c[nH]c3ccccc23)c1OCc1ccccc1F | i
COc1ccc2nc(SCC(=O)Nc3ccc(S(=O)(=O)Nc4nccc(C)n4)cc3)[nH]c2c1 | i
CC(C)(C)NC(=O)CSc1nnc(CN2CCCCCC2=O)n1-c1ccccn1 | 0.6
Cc1ccc(/C(CSc2nccn2-c2ncc(C(F)(F)F)cc2Cl)=N\O)cc1 | 0.2
O=C(O)C1CCCCC1C(=O)NCc1ccccc1 (stereo unspecified) | i
N#CCCN1CCN(S(=O)(=O)c2ccc(S(=O)(=O)NCc3ccccc3)cc2)CC1 | 3.0
CCN(CCCNC(=O)CN1C(=O)COc2ccccc21)c1ccccc1 | i
CC1(C)N=C(N)NC(Nc2ccccc2)=N1 | 0.8
CCNc1nc2c(c(=O)[nH]c(=O)n2C)n1CC(C)C | 2.1
O=C(c1cc2ncc(Br)cn2n1)N1CCOCC1 | 0.5
O=c1[nH]c2ccccc2n1C1=CCCC1 | 0.3
SMILES | H5N1 CPE
Cc1ccc(-c2nc(CSCC(=O)Nc3cc(C)on3)c(C)o2)cc1 | 0.8
C=CCNC(=O)c1onc(CSc2ccc(F)cc2)c1C(=O)O | 0.1
Cc1cccc(-n2ncc3c(Nc4c(C)n(C)n(-c5ccccc5)c4=O)ncnc32)c1 | 0.7
COc1cccc(-c2nnc3sc(C4CCCCC4)nn23)c1 | 10
CN1CCN(CCC(=O)Nc2ccc(F)c(F)c2)CC1 | i
Cc1nc(SCC(=O)Nc2c(C)n(C)n(-c3ccccc3)c2=O)nc(C)c1C | i
CC1CCCCN1c1nnc(NC(=O)c2cc(-c3ccc(Br)cc3)on2)s1 (stereo unspecified) | i
Cc1ccnc(N2CCC(C(=O)NCc3ccc4c(c3)OCO4)CC2)n1 | i
Cc1noc(NS(=O)(=O)c2ccc(NC(=O)COc3ccccc3)cc2)c1C | 0.1
CCOC(=O)c1[nH]c(C)c(C(=O)Nc2ccccc2F)c1C | i
O=C(NCc1ccco1)c1nc(-c2ccccc2)n(-c2ccccc2)n1 | 0.8

Six entries from above, reformatted:
| Structure | H5N1 CPE |
| --- | --- |
| C=CCNC(=O)c1onc(CSc2ccc(F)cc2)c1C(=O)O | 0.1 |
| Cc1cccc(-n2ncc3c(Nc4c(C)n(C)n(-c5ccccc5)c4=O)ncnc32)c1 | 0.7 |
| COc1cccc(-c2nnc3sc(C4CCCCC4)nn23)c1 | 10 |
| CN1CCN(CCC(=O)Nc2ccc(F)c(F)c2)CC1 | i |
| Cc1nc(SCC(=O)Nc2c(C)n(C)n(-c3ccccc3)c2=O)nc(C)c1C | i |
| CC1CCCCN1c1nnc(NC(=O)c2cc(-c3ccc(Br)cc3)on2)s1 (stereo unspecified) | i |

Some of the compounds tested. The share of hits here may be higher or lower than overall.
